Screening results as filed in PubChem BioAssay.
Phagocyt inh – inhibitors of macrophage phagocytosis, primary screen, imaging, J774A.1 cells, IgG beads; J774A.1 macrophage IgG-bead phagocytosis; inhibition, % at 5 µM; actives 0.07% (n = 110,000);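 active = inhibition above the mean of the plate negative controls plus 5 SD, cut at about 13% in these data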;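 also: phagocytic index as fraction of beads internalized from green versus red external bead signal; plate controls were DMSO negative control for no effect and cytochalasin-D positive control for full effect; some results beyond the cut were filed as inactive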
Yeast life ext – compounds extending yeast replicative lifespan, primary screen, S. cerevisiae, OD615. actives 0.68% (n = 130,000). S. cerevisiae growth with nicotinamide; deaD strain in restrictive glucose medium. inhibition of the nicotinamide effect, % at 10 µM. AID 775, 2007;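 active = inhibition above a set limit, placed 3 SD over the median of all compounds, cut at about 26% in these data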;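 also: 0% = nicotinamide-treated wells and 100% = cells grown without nicotinamide; some compounds called inactive have numbers as strong as hits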
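Test system – modified budding yeast, DeaD strain · Compound – single dose 10 µM compound, 0.25% DMSO · Times – culture preincubation 4 h, compound exposure 48 h, both 30 °C · Detection – optical density (absorbance) at 615 nm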
GALR2 antag – GALR2 antagonists in receptor-expressing cells, primary screen | antagonist mode | inhibition, % at 4 µM | actives 0.39% (n = 140,000); in the data active = inhibition above about 27%;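 also: cells stimulated with galanin 1-16 at roughly its EC80; 0% = agonist challenge control and 100% = basal control without agonist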
Target sequence (O43603 whole entry, looked up): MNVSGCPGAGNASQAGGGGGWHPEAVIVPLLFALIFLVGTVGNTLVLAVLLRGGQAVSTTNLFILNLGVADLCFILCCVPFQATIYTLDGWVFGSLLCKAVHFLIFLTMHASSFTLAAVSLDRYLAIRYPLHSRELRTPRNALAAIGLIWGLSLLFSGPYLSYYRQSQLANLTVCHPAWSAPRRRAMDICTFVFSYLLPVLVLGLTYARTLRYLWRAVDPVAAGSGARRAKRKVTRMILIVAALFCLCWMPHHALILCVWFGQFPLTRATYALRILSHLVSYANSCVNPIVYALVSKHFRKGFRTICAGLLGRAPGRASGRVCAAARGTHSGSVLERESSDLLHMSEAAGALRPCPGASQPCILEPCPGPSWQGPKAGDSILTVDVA
Yeast growth inh – growth inhibitors of yeast BB579 in restrictive medium, primary screen, yeast lifespan-shortening project, S. cerevisiae | OD615, 48 h | inhibition, % at 10 µM | actives 0.51% (n = 140,000) | AID 804, 2007;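 active = inhibition above a set limit, 3 SD over the mean compound inhibition, cut at about 44% in these data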; also: inactives centre near -24
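System: Saccharomyces cerevisiae DeaD strain BB579, replicative lifespan model yeast. Buffer or medium: restrictive glucose-based CSMM-D medium. Doses: one dose, 10 µM compound with 0.25% DMSO. Timing: 4 h preincubation and 48 h exposure at 30 °C. Detection: turbidity as optical density at 615 nm. Benchmarks: amphotericin B 10 µg/mL, positive.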
Measles CPE – compounds protecting cells from measles virus cytopathic effect, primary screen, measles RdRp inhibitor project, single point, MLSMR library, absorbance; Measles virus-infected cells, CPE protection; protection (pct of control), % at 4 µM; actives 1.5% (n = 140,000); AID 841, 2007; in the data active = protection mostly above about 24%, no sharp cut-off; inactive = mostly below about 26%; also: some compounds called inactive have numbers as strong as hits
E-sel TNF inh – E-selectin induction blockers in HUVEC – imaging, immunofluorescence, high content, primary screen | actives 0.71% (n = 120,000) | inhibition, % at 2 µM | HUVEC TNFa-induced E-selectin immunofluorescence;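 active = inhibition above the batch mean plus 3 SD, and confirmed as a hit on visual image review, cut at about 43% in these data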;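 also: 0% = TNF-stimulated DMSO wells and 100% = unstimulated control wells; not every result past the cut was called active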
MRP1 act – H69AR viability gain despite doxorubicin, primary screen, MRP-1 activator project, H69AR cells, CellTiter-Glo. viability rescue. viability increase, % at 10 µM. actives 0.61% (n = 140,000). AID 799, 2007;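 active = viability gain under doxorubicin at or above a set limit, the compound median plus 3 SD, cut at about 4.7% in these data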;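 also: MRP-1 overexpressing cells given doxorubicin 25 µM after compound pretreatment; 18-22 h compound pretreatment then 72 h with doxorubicin before readout; 0% = doxorubicin-only wells and 100% = vehicle-treated cells without doxorubicin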
Starred values were filed as active, the others as inactive; · = no result given; & = joins results of further samples.

Below each SMILES – Phagocyt inh	Yeast life ext	GALR2 antag	Yeast growth inh	Measles CPE	E-sel TNF inh	MRP1 act
COc1cc(Cc2cnc(N)nc2N)cc(OC)c1OC
→ -1	-15&2	0&2	-13&-39	3&16	-21	-0.4&-1.1
CCn1cc(C(=O)NCc2cccnc2)c(=O)c2cc(F)c(N3CCN(C(=O)c4ccco4)CC3)cc21
→ 0	-4	-9	-2	9	11	-4.5
COc1ccc(NS(=O)(=O)c2ccc(N)cc2)nn1
→ ·	4	-5	-38	34	·	-2.0
N#Cc1c(/N=C/c2cccs2)sc2c1CCCCC2
→ 1	-6	7	-1	14	2	-2.3
CCOc1ccc(N2CC(C(=O)OCC(=O)NCc3ccccc3)CC2=O)cc1 (centres undefined)
→ ·	-3	15	-5	18	·	-1.1
CN1CCN(C2=Nc3cc(Cl)ccc3Nc3ccccc32)CC1
→ ·	3	8	-35	4	·	0.0
CCCCN(C)C(=O)c1ccc(S(=O)(=O)N2CCOCC2)cc1
→ 0	-8	5	-51	6	·	-3.1
COc1ccc2c(c1OC)C(=O)O[C@@H]2[C@H]1c2c(cc3c(c2OC)OCO3)CCN1C
→ ·	1	1	-19	1	·	-2.5
CC[C@H](CO)NCCN[C@H](CC)CO
→ ·	2	0	-10	30	·	-0.7
O=C1/C(=C\c2cccnc2)CN(Cc2ccccc2)C/C1=C\c1cccnc1
→ -9	55*	8	-50	0	·	-7.1

Filtered by structure, those above containing a carbonyl joined to an NH by a bond outside any ring
Below each SMILES – Phagocyt inh	Yeast life ext	GALR2 antag	Yeast growth inh	Measles CPE	E-sel TNF inh	MRP1 act
CCn1cc(C(=O)NCc2cccnc2)c(=O)c2cc(F)c(N3CCN(C(=O)c4ccco4)CC3)cc21
→ 0	-4	-9	-2	9	11	-4.5
CCOc1ccc(N2CC(C(=O)OCC(=O)NCc3ccccc3)CC2=O)cc1 (centres undefined)
→ ·	-3	15	-5	18	·	-1.1

Rewritten with each value named: part of the list above
molecule: CN1CCN(C2=Nc3cc(Cl)ccc3Nc3ccccc32)CC1
  Phagocyt inh: · | Yeast life ext: 3 | GALR2 antag: 8 | Yeast growth inh: -35 | Measles CPE: 4 | E-sel TNF inh: · | MRP1 act: 0.0

molecule: CCCCN(C)C(=O)c1ccc(S(=O)(=O)N2CCOCC2)cc1
  Phagocyt inh: 0 | Yeast life ext: -8 | GALR2 antag: 5 | Yeast growth inh: -51 | Measles CPE: 6 | E-sel TNF inh: · | MRP1 act: -3.1

molecule: COc1ccc2c(c1OC)C(=O)O[C@@H]2[C@H]1c2c(cc3c(c2OC)OCO3)CCN1C
  Phagocyt inh: · | Yeast life ext: 1 | GALR2 antag: 1 | Yeast growth inh: -19 | Measles CPE: 1 | E-sel TNF inh: · | MRP1 act: -2.5

Going on with the list.
Compound,Phagocyt inh,Yeast life ext,GALR2 antag,Yeast growth inh,Measles CPE,E-sel TNF inh,MRP1 act
O=C(CN(C(=O)CNS(=O)(=O)c1ccccc1)C1CCCC1)NCc1ccco1,0,·,·,-20,8,·,-3.7
Cc1ccc(-c2c(C)n([O-])c3c([n+]2=O)CCCC3)o1,-3,-2,9,7,3,6,-1.4
COC(=O)c1cn(C(=O)c2ccco2)c2ccccc12,-1,-10,-1,-5,1,-13,-0.3
CCOC(=O)c1cccc(NC(=O)c2cccs2)c1,0,-10,6,-26,3,4,0.2
COCCn1nnnc1C(c1cccc(OC)c1OC)N1CCN(C2CCCCC2)CC1 (centres undefined),0,1,5,-12,18,-2,-0.8
CCn1cc(C(=O)NCc2ccc3c(c2)OCO3)c(=O)c2cc(F)c(N3CCN(C)CC3)cc21,-1,-27,-2,4,6,·,-5.8
CN1CCN2c3ccccc3Cc3ccccc3C2C1 (centres undefined),·,5,0,-11,8,·,-1.7
COc1ccc(Cl)cc1S(=O)(=O)N1CCN(C(=O)c2ccco2)CC1,0,-4,1,-17,37,-12,-1.9
Clc1ccc2c(c1)C(N1CCNCC1)=Nc1ccccc1O2,·,2,11,-19,3,·,-3.1
CCn1c(SCC(=O)Nc2oc(-c3ccccc3)c(-c3ccccc3)c2C#N)nnc1-c1ccco1,-1,-13,2,-26,6,5,-3.2
COCCc1ccc(OCC(O)CNC(C)C)cc1 (centres undefined),·,7,-9,-6,1,·,-1.3
CC(C)C(NS(=O)(=O)c1cccc2nsnc12)C(=O)N1CCn2c1nc1ccccc12 (centres undefined),·,-6,17,3,3,6,2.3
O=C(CCCN1CCC(O)(c2ccc(Cl)cc2)CC1)c1ccc(F)cc1,·,2,9,-33,27,·,-2.0
O=C(O)c1cccnc1,·,4,-2,-17,7,·,-0.8
Cc1ccc(-n2ncc3c(=O)[nH]cnc32)c(C)c1,-2,-7,8,-8,8,·,-2.5
COc1cccc(NC(=O)CSc2nncn2-c2ccccn2)c1,0,8,-4,-63,13,-9,-1.8
CN1C(=O)NC(c2cccc(O)c2)C(C(=O)c2cccs2)C1(O)C(F)(F)F (centres undefined),1,24,2,-10,5,-16,-2.6
CCC(CO)NCCNC(CC)CO (centres undefined),2,-10,-10,-6,7,-8,0.4

2 entries drawn at random from those above:
Compound,Phagocyt inh,Yeast life ext,GALR2 antag,Yeast growth inh,Measles CPE,E-sel TNF inh,MRP1 act
CC(C)C(NS(=O)(=O)c1cccc2nsnc12)C(=O)N1CCn2c1nc1ccccc12 (centres undefined),·,-6,17,3,3,6,2.3
Cc1ccc(-n2ncc3c(=O)[nH]cnc32)c(C)c1,-2,-7,8,-8,8,·,-2.5

7 of the entries above in order of the Yeast life ext value, descending:
molecule,Yeast life ext
CN1C(=O)NC(c2cccc(O)c2)C(C(=O)c2cccs2)C1(O)C(F)(F)F (centres undefined),24
COc1cccc(NC(=O)CSc2nncn2-c2ccccn2)c1,8
COCCc1ccc(OCC(O)CNC(C)C)cc1 (centres undefined),7
Clc1ccc2c(c1)C(N1CCNCC1)=Nc1ccccc1O2,2
CC(C)C(NS(=O)(=O)c1cccc2nsnc12)C(=O)N1CCn2c1nc1ccccc12 (centres undefined),-6
COC(=O)c1cn(C(=O)c2ccco2)c2ccccc12,-10
CCn1c(SCC(=O)Nc2oc(-c3ccccc3)c(-c3ccccc3)c2C#N)nnc1-c1ccco1,-13

Not all compounds are listed; count on the stated rates, not on these rows.
